Calb FLC – C. albicans growth modulation with fluconazole | C. albicans CaCi-2 (fluconazole-resistant clinical isolate) + fluconazole, Alamar Blue growth, 48 h | growth inhibition, % (test concentration not listed) | 300,000 compounds, 0.57% hits | AID 1979;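 active = most replicates above 75%; inconclusive = exactly half above 75%; inactive = most below 75%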;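 note: all wells also contain fluconazole at 8 µg/ml as a sub-toxic cotreatment; 0% = median of DMSO wells and 100% = median of geldanamycin control wells; wells of about 8 µL received 7.5 nL stock; the first replicate is given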
Beta cell apopt – beta cell apoptosis inhibition; 300,000 compounds, 0.8% hits; INS-1E cytokine-induced death, ATP luminescence, 48 h; percent of positive-control rescue, neutral wells zero; protection from apoptosis, % (concentration not given with the values);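 active = all replicates at 75% or more, or half of them and the mean; inconclusive = half reach 75% but not the mean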;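 note: 0% = cytokine-treated negative control wells and 100% = positive control rescue; higher means more ATP so stronger rescue from cytokine killing; wells of about 40 µL received 100 nL stock; the first replicate is given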
T cruzi repl – T. cruzi replication inhibition; AID 1885; inhibition, % (concentration not given with the values); T. cruzi beta-gal in NIH3T3, luminescence, 90 h; 300,000 compounds, 1.4% hits;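 active = mean inhibition across valid replicates above about 55%, limit read from the data; inconclusive = mean below that limit but half or more replicates reach it; inactive = mean below it, under half of replicates reach it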;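 note: signal also drops with host cell toxicity which is not excluded here; 0% = plate median of DMSO wells and 100% = zero luminescence signal; higher percent means less beta-gal luminescence so fewer parasites; stock transfer was 50 nL into about 50 µL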
FGF22 binding – FGF22 (human) thermal shift binding. 340,000 compounds, 1.5% hits. Q9HCT0. calls only at 9.99 µM. recombinant FGF22 thermal shift, SYPRO orange fluorescence; percent of sucrose octasulfate shift, DMSO zero;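 active = melting point raised past a set limit in the mean and every replicate; inconclusive = no clear call; three in four hits are not shown here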
Target sequence (Q9HCT0 whole entry, looked up): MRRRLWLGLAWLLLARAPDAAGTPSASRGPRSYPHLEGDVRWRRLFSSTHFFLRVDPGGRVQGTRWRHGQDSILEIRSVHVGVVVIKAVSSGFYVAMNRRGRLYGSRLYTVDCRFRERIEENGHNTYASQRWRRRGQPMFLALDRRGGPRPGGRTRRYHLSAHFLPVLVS
RanGTP-Imp inh – disruptors of Ran-importin-beta complex formation – biochemical, FRET, CFP-Ran, YFP-importin-beta, homogeneous, primary screen | cell-free CFP-Ran/YFP-importin-beta FRET ratio | inhibition, % (test concentration not listed) | 300,000 compounds, 1.1% hits;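 active = most replicates above 15%; inconclusive = exactly half above 15%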;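 note: 0% = DMSO wells and 100% = Ran loaded with GDP instead of GTP; wells of about 40 µL received 100 nL stock; the first replicate is given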
rRNA inh HTS – inhibits bacterial ribosomal RNA function over humanized ribosomes. GFP signal change (wild-type ribosome), % (test concentration not listed). AID 720706. 350,000 compounds, 1.6% hits. E. coli WT GFP vs humanized-ribosome RFP mutants, fluorescence, 24 h; hits give low values; DMSO median 0, no signal -100;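 active = significant combined selectivity score with lowered wild-type GFP, culture density cut under 30%, mutant RFP and density less affected; inactive = any of these conditions unmet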; note: one replicate is shown; some compounds called inactive have numbers as strong as hits
ALR inh – blocks human ALR sulfhydryl oxidase activity; purified ALR, DTT oxidation, H2O2 HRP-luminol luminescence; P55789; inhibition, % (test concentration not listed); 290,000 compounds, 3.8% hits;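 active = mean and each replicate at 75% or more; inconclusive = only one of the two met; inactive = neither met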;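 note: stock transfer was 7.5 nL into about 7.5 µL; 0% = neutral wells and 100% = wells with inactivated enzyme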
Target sequence (P55789 whole entry, looked up): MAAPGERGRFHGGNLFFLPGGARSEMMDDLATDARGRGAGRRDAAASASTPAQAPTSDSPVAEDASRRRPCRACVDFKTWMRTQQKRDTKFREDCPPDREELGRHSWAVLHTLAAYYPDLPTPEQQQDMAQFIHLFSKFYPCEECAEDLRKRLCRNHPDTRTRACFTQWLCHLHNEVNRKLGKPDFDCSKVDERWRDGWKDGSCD
AF4-AF9 inh – MLL-AF4/AF9 protein interaction inhibition; AlphaScreen, biotin-AF4 peptide binding to FLAG-AF9; inhibition, % at 10 µM; P42568; 350,000 compounds, 0.47% hits; AID 651704;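 active = every replicate reaching a set inhibition limit, whatever the replicate mean, cut at about 25% in these data; inconclusive = mean inhibition reaches that limit but some replicates miss it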;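 note: 0% = plate neutral control median and 100% = total signal loss; the record names both 10 and 1 µM as test concentration; the first replicate is given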
Target sequence (P42568 whole entry, looked up): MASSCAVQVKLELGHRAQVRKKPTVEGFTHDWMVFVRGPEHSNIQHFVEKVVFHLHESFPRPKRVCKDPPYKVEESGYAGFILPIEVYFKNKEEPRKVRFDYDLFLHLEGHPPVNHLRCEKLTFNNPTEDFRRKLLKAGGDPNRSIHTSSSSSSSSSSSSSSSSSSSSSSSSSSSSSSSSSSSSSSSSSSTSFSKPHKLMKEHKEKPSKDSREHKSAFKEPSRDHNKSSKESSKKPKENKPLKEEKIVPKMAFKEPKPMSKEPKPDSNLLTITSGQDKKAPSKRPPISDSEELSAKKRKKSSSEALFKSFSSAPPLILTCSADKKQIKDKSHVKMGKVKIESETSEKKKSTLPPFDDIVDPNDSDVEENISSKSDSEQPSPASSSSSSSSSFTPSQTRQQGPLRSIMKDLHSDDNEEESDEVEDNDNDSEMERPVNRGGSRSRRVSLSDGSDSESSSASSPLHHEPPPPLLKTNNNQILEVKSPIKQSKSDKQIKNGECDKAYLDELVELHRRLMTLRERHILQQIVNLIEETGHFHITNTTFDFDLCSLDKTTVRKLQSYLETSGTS
rRNA inh HTS OD600 – further read-out of rRNA inh HTS, marked with its call; OD600 change, %; measured here: OD600 growth;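 optical density of the mix in the first replicate; 0 = DMSO median and -100 = no signal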
rRNA inh HTS RFP – recorded beside rRNA inh HTS, whose call it bears; RFP signal change, %; measured here: RFP humanized mutant strains;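 first replicate; 0 = DMSO median and -100 = no signal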
* marks the source's active call; other numbers are inactive results; i = inactive; u = inconclusive; x = not tested or not shown.

SMILES | Calb FLC | Beta cell apopt | T cruzi repl | FGF22 binding | RanGTP-Imp inh | rRNA inh HTS | rRNA inh HTS OD600 | rRNA inh HTS RFP | ALR inh | AF4-AF9 inh
COc1ccc(N(CC(=O)Nc2ccc(C)c(C)c2)C2=NC3CS(=O)(=O)CC3S2)cc1 (centres undefined) | -1 | -20 | -8 | i | -4.2 | 4 | 6 | -4.0 | 42 | -4.5
O=C1C2C3C=CC(C3)C2C(=O)N1CCCCN1C(=O)C2C3C=CC(C3)C2C1=O (centres undefined) | 3 | -3 | -11 | x | 0.5 | x | x | x | -8 | x
COC(=O)C1=C(C)OC(N)=C(C#N)C1c1ccco1 (centres undefined) | 9 | -5 | -1 | x | -4.3 | x | x | x | 2 | x
N#Cc1ccccc1NC(=O)CSc1n[nH]c(=O)n1C1CC1 | x | -1 | x | i | x | 4 | 12 | 0.2 | -6 | 0.7
O=C(CNS(=O)(=O)c1ccccc1)NCC(=O)OCc1ccccc1F | 24 | 2 | -15 | x | 3.8 | x | x | x | -5 | x
Cc1ccc(SCC(=O)c2ccc(CC(=O)O)s2)cc1 | -1 | -10 | -11 | i | -4.2 | 2 | -7 | 0.5 | x | -3.1
Cc1ccc2nc3c(cc(C(=O)NCCCn4ccnc4)n3C)c(=O)n2c1 | 7 | 3 | 9 | x | -2.8 | x | x | x | -16 | x
CCOC(=O)c1cc2c(=O)n3cccc(C)c3nc2n(CC(C)C)c1=NC(=O)c1ccco1 | 0 | 14 | 28 | i | 164* | x | x | x | -4 | -8.0
COC(=O)c1c(NC(=O)CSc2nnc(CNc3ccc(Cl)cc3)o2)sc(C)c1C | 0 | -3 | -5 | x | -2.4 | x | x | x | x | x
CCCNC(=S)N(Cc1ccccc1)Cc1nc2ccccc2c(=O)[nH]1 | -6 | -1 | 1 | x | 0.5 | x | x | x | -4 | x
CC(C)n1nnnc1SCC(=O)N(C)C1CCS(=O)(=O)C1 (centres undefined) | x | -3 | x | i | x | 6 | 18 | -2.9 | -1 | -1.1
CCOC(=O)C1=C(N)Oc2cc(O)ccc2C1c1cccc([N+](=O)[O-])c1 (centres undefined) | 7 | -3 | -8 | i | 3.4 | -39 | -33 | -13 | 85* | 3.6
CC(=O)Nc1ccc(S(=O)(=O)N2c3ccccc3NC(=O)CC2C)c(Cl)c1 (centres undefined) | 3 | 0 | -6 | i | 7.5 | 8 | 9 | -0.7 | x | 0.7
O=C(Cn1nnc(-c2ccc(Cl)cc2)n1)NC1CCS(=O)(=O)C1 (centres undefined) | x | -4 | x | i | x | 6 | 12 | -3.4 | 2 | -4.8
O=C(c1cccs1)c1cn(CC(=O)N2CCc3ccccc3C2)c2ccccc12 | 16 | -4 | 17 | x | 6.3 | x | x | x | -6 | x
CCc1cc(=O)oc2c(C)c(OS(C)(=O)=O)ccc12 | 2 | -6 | 2 | x | 0.3 | x | x | x | 10 | x
Cc1ccc(Oc2nc(-c3ccccn3)nc3ccccc23)cc1 | 3 | 101* | 9 | i | 3.8 | 12 | 9 | 2.1 | 24 | -1.4
O=c1cc(CN2CCN(S(=O)(=O)c3cccc(Cl)c3)CC2)c2ccc(O)cc2o1 | x | 6 | x | i | x | -34 | -46 | -5.7 | -3 | -0.7
Cc1ccc(-c2nc(N)n(S(=O)(=O)c3ccc(C)cc3)n2)cc1 | -2 | -2 | 0 | i | 0.7 | 23 | 12 | 0.6 | -3 | 0.1
CCOC(=O)NC(O)C(=O)c1cccs1 (centres undefined) | 16 | -4 | -6 | x | -3.5 | x | x | x | -3 | x
COc1ccc(-n2c(SCC(=O)NCc3ccco3)nc3c([nH]c4ccccc43)c2=O)cc1 | 13 | 8 | 11 | i | -3.9 | 0 | 10 | 4.3 | 4 | 0.9
Cc1cc(NC(=O)c2cc3cccc([N+](=O)[O-])c3[nH]2)ccc1F | -5 | -4 | 34 | i | 1.3 | 0 | 12 | -0.7 | 6 | -0.1
N#Cc1cccc(NC(=O)Cn2cnc(S(=O)(=O)N3CCCC3)c2)c1 | -31 | -7 | -7 | i | u | 6 | 10 | -1.1 | -4 | -11
CSc1ncccc1C(=O)Nc1nc(C(C)(C)C)cs1 | -13 | 2 | 4 | i | -1.9 | 3 | -39 | -8.7 | -5 | -2.9
COc1ccc(CN2CCN(C(=O)CC(C)C)CC2)cc1Br | 5 | 1 | -8 | i | -5.0 | -7 | -10 | -5.6 | -8 | -0.8
COc1ccc(S(=O)(=O)N2CC(O)C[C@H]2C(=O)OCC(=O)N2CCCCCC2)cc1 (some centres undefined) | 9 | -3 | -8 | i | 6.7 | 3 | 2 | -1.1 | -3 | -0.7
Cn1c(CCN2CCCCC2)nc2cc(NC(=O)COc3ccccc3)ccc21 | x | -4 | 15 | i | -2.6 | 5 | 8 | -0.1 | -5 | 1.8
Cc1ccc(S(=O)(=O)N2CCOCC2)cc1NC(=O)COC(=O)c1n[nH]c(=O)c2ccccc12 | -4 | 0 | -5 | i | 4.4 | 1 | 0 | -8.9 | x | -1.4
CCOC(=O)c1cnn(-c2cc(Oc3ccccc3C)ncn2)c1N | -9 | -4 | 34 | x | 1.3 | x | x | x | -3 | x
CCN(CC(=O)Nc1cc(Cl)ccc1Cl)C(=O)c1ccc(-n2cccn2)cc1 | x | -7 | x | i | x | -10 | -15 | 8.0 | x | -4.0
CCOC(=O)C(C)Sc1nc2c(c(=O)[nH]c(=O)n2C)n1Cc1ccc(Cl)cc1 (centres undefined) | -3 | -1 | -6 | i | 2.2 | -4 | -19 | -8.0 | -48 | -8.1
C=CCn1c(N/N=C/c2ccc(O)cc2)nc2ccccc2c1=O | 46 | 18 | -7 | i | -4.1 | -1 | 7 | -1.3 | 75 | 6.8
Cc1cccc(C(=O)OCC(=O)Nc2nnc(-c3ccccc3)o2)c1O | u | -1 | 1 | i | 6.6 | -11 | -28 | 0.1 | x | -30
COc1ccccc1N1CCN(CC(O)c2ccccc2)CC1 (centres undefined) | 11 | x | 7 | i | 1.0 | 2 | 3 | -0.3 | 12 | 0.8
CCCNC(=O)C1CC(c2cccc(F)c2)=NO1 (centres undefined) | -5 | 0 | -1 | i | -5.3 | 14 | 14 | 3.1 | -6 | -2.8
COc1cc(OC)c(C(=O)OCC(=O)NCCc2ccccc2)cc1OC | 46 | x | -8 | i | 0.2 | 9 | 0 | 4.1 | -33 | -7.3
OC(COc1ccc2ccccc2c1Br)Cn1cnc(-c2ccccc2)c1 (centres undefined) | -3 | 3 | 23 | x | -0.9 | x | x | x | -3 | x
COc1cc(C(=O)NCC(=O)NCC(c2ccco2)N2CCCCC2)cc(OC)c1OC (centres undefined) | x | 4 | x | i | x | 11 | 8 | 1.4 | 0 | -2.4
COc1ccc(C2CC(c3ccccc3)=NN2c2ccc(C(N)=O)cc2)cc1 (centres undefined) | 32 | 3 | 10 | i | 11 | -18 | -26 | -2.1 | 12 | -11
CCOC(=O)c1ccc(NC(=S)NCc2ccco2)cc1 | 3 | 0 | 5 | i | 4.8 | -14 | -7 | -1.2 | -2 | -5.7
OCC(O)CN(c1ccccc1)c1ccccc1 (centres undefined) | 8 | -5 | -12 | i | 1.8 | 1 | 9 | -2.0 | 99* | 2.3
CC(=O)C1=C(C)OC2(O)c3ccccc3C(=O)C12O (centres undefined) | 35 | 1 | -25 | x | 4.5 | 18 | 11 | 3.5 | 28 | -0.9
CCC(=O)Nc1ccc2c(c1)nc1n2CCSC1 | 0 | 0 | 4 | x | 1.0 | x | x | x | 99* | x
COc1ccccc1NC(=O)CSc1nnc(-c2ccncc2)n1CC1CCCO1 (centres undefined) | -5 | -4 | -4 | x | 7.1 | x | x | x | x | x
O=C(/C=C\c1cccs1)N1CCN(Cc2ccc3c(c2)OCO3)CC1 | -47 | x | 10 | i | 2.8 | -12 | -17 | -3.9 | -3 | 1.7
NC(=S)N1CCCc2ccccc21 | 0 | -4 | -33 | i | 3.4 | 6 | 8 | 5.4 | -6 | 3.0
COc1ccc(NC(=O)Nc2ccc([N+](=O)[O-])cc2)cn1 | 3 | 12 | 9 | x | -1.2 | 1 | 1 | 6.3 | -1 | -0.2
COc1ccc(C2=NN(c3nc4ccccc4s3)C(=O)/C2=C\N(C)C)cc1 | -10 | -2 | 10 | x | 5.0 | x | x | x | 16 | x
CCN(CC)S(=O)(=O)c1cc(C(=O)OCC(=O)NC(=O)c2cccn2C)ccc1C | -5 | -9 | -9 | x | 2.6 | x | x | x | x | x
CN(/C=C/c1c([N+](=O)[O-])c(=O)n(C)c(=O)n1C)c1ccccc1 | 3 | 0 | -18 | i | 0.8 | 5 | 2 | 0.0 | x | -6.3
The list continues:
SMILES | Calb FLC | Beta cell apopt | T cruzi repl | FGF22 binding | RanGTP-Imp inh | rRNA inh HTS | rRNA inh HTS OD600 | rRNA inh HTS RFP | ALR inh | AF4-AF9 inh
COc1ccc(C(=O)NCCCNC(=O)c2cnccn2)cc1 | -4 | -12 | -9 | i | -0.3 | 1 | -5 | -0.1 | -7 | 1.9
CCOc1cccc2sc(N(CCCN(C)C)C(=O)c3ccc(S(=O)(=O)N4CCCCCC4)cc3)nc12 | 3 | 5 | 30 | x | 0.9 | -24* | -12* | 4.1* | -55 | 3.5
CCn1c(C)cc(/C=C2/SC(=S)NC2=O)c1C | 40 | -10 | 9 | i | 5.5 | 18 | 6 | 0.2 | x | -4.5
N#CC1(c2ccc(NC(=O)c3ccccc3F)cc2)CCCC1 | -10 | 8 | 27 | x | -2.1 | x | x | x | 71 | x
COc1ccc(/C=N/NC(=O)c2ccc(CSc3nncn3C)cc2)cc1OC | 6 | 7 | -2 | i | 0.4 | 10 | 13 | 11 | 30 | -0.7
CC(=O)CC(C)(C)S(=O)(=O)c1ccc(Oc2ccc(S(=O)(=O)C(C)(C)CC(C)=O)cc2)cc1 | -15 | 0 | 1 | x | -1.1 | x | x | x | -4 | x
Cc1c(C)n(CCC(=O)O)c2ccccc12 | 2 | -3 | -35 | i | -5.4 | -2 | 7 | 28 | 28 | -0.8
Oc1ccc(/C=N/Nc2nc(-c3cccnc3)nc3ccccc23)c(O)c1 | u | 21 | -19 | i | 0.1 | -6 | -3 | 3.4 | 33 | -4.4
CN(C(=O)CC1C(=O)NCCN1C/C=C/c1ccccc1)C1CCOCC1 (centres undefined) | 22 | -3 | -4 | i | -2.1 | 6 | 1 | 0.3 | x | -6.4
CCc1nnc(NC(=O)/C=C/c2ccco2)s1 | -15 | -3 | 1 | i | -3.7 | -4 | -5 | 3.8 | 2 | 2.7

Compound activity (PubChem)

These rows are one share of the data, so the mix of outcomes need not match the whole.
